Mtb growth: Mycobacterium tuberculosis H37Rv growth inhibition, cell based, confirmatory dose response (AID 1949). most inactive calls were filed without a number and no value below 0 was filed. actives 1.6% (n = 100,000). one-dose inhibition, % at 10 µg/mL; IC50 in µg/mL for titrated hits;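 active means confirmed in a dose series; inconclusive means about 50% or more but not retested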;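 further: bacteria grown 7 days with compound before Alamar blue readout; 0% = untreated bacteria and 100% = reference antibiotic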
* = called active by the depositor.

Preview:
How did CC(=O)Nc1ccc(S(=O)(=O)N2CCC(N3CCC(C)CC3)CC2)cc1 do in these assays?
Mtb growth: inactive

What do the screens show for `COc1cccc(OC)c1C(=O)NC(=S)Nc1ccc(Br)cc1F`?
Mtb growth: inactive

How did COc1ccc(-c2nc3ccc([N+](=O)[O-])cc3[nH]2)cc1 do in these assays?
Mtb growth: 14.0%

What do the screens show for `CC(NC(=O)c1csc2ccccc12)C1CCCO1` (stereo not drawn)?
Mtb growth: inactive

What do the screens show for `CS(=O)(=O)N(CC(=O)Nc1ccc(F)c(F)c1)c1ccccc1F`?
Mtb growth: 0.2%

Results for O=c1c[n+]([O-])c2ccccc2n1OCc1ccc(Cl)cc1 ?
Mtb growth: inactive

The whole of this part, from the start:
How did CC(=O)Nc1ccc(S(=O)(=O)N2CCC(N3CCC(C)CC3)CC2)cc1 do in these assays?
Mtb growth: inactive

What do the screens show for `COc1cccc(OC)c1C(=O)NC(=S)Nc1ccc(Br)cc1F`?
Mtb growth: inactive

How did COc1ccc(-c2nc3ccc([N+](=O)[O-])cc3[nH]2)cc1 do in these assays?
Mtb growth: 14.0%

What do the screens show for `CC(NC(=O)c1csc2ccccc12)C1CCCO1` (stereo not drawn)?
Mtb growth: inactive

What do the screens show for `CS(=O)(=O)N(CC(=O)Nc1ccc(F)c(F)c1)c1ccccc1F`?
Mtb growth: 0.2%

Results for O=c1c[n+]([O-])c2ccccc2n1OCc1ccc(Cl)cc1 ?
Mtb growth: inactive

Results for Cc1ccc(C)c(NC(=S)N2CCC(C(O)(c3ccccc3)c3ccccc3)CC2)c1 ?
Mtb growth: inactive

How did COC(=O)c1cn(C(=O)c2cc(C)cc(C)c2)c2ccccc12 do in these assays?
Mtb growth: inactive

What do the screens show for `CCC(C)c1ccc(NC(=S)Nc2ccn(Cc3c(F)c(F)c(F)c(F)c3F)n2)cc1` (stereo not drawn)?
Mtb growth: inactive

How did CC(C)CN(CC(C)C)S(=O)(=O)c1ccc(C(=O)Nc2ccccc2Br)cc1 do in these assays?
Mtb growth: inactive

How did CCCCC(=O)NC1C2CC3CC(C2)CC1C3 (stereo not drawn) do in these assays?
Mtb growth: inactive

How did Cc1cc(Br)ccc1NC(=S)Nc1cccc([N+](=O)[O-])c1 do in these assays?
Mtb growth: inconclusive

Results for CC(C)c1ccc(OCC(=O)NCc2ccccn2)c(Br)c1 ?
Mtb growth: inactive

How did CCc1cc(C(=O)OC)c(NC(=S)Nc2ccccc2-c2ccccc2)s1 do in these assays?
Mtb growth: inactive

How did O=C(NC(=S)N1CCc2ccccc21)c1ccccc1 do in these assays?
Mtb growth: 1.45µg/mL*

Four records drawn at random from the list so far, as already listed:
How did CC(C)CN(CC(C)C)S(=O)(=O)c1ccc(C(=O)Nc2ccccc2Br)cc1 do in these assays?
Mtb growth: inactive

How did Cc1cc(Br)ccc1NC(=S)Nc1cccc([N+](=O)[O-])c1 do in these assays?
Mtb growth: inconclusive

How did COC(=O)c1cn(C(=O)c2cc(C)cc(C)c2)c2ccccc12 do in these assays?
Mtb growth: inactive

Results for CC(C)c1ccc(OCC(=O)NCc2ccccn2)c(Br)c1 ?
Mtb growth: inactive

Further records.
Results for COc1cc(C(=O)N2CCC(C(=O)Nc3ccccc3F)CC2)cc(OC)c1OC ?
Mtb growth: inactive

What do the screens show for `O=C(Cc1ccccc1)Nc1ccccc1C(=O)NC1CCCCC1`?
Mtb growth: inactive

How did CN1C(=O)N(C(=O)c2ccccc2)C(=O)C(C)(C2=CCCCC2)C1=O (stereo not drawn) do in these assays?
Mtb growth: inactive

How did CCCOc1ccc(S(=O)(=O)N2CCN(c3ccccc3F)CC2)cc1 do in these assays?
Mtb growth: inactive

What do the screens show for `CCC1CCCCN1S(=O)(=O)c1cc(C)c(C)cc1C` (stereo not drawn)?
Mtb growth: 0.8%

How did NCCc1c[nH]c2ccc(Cl)cc12 do in these assays?
Mtb growth: 2.5%

How did Cc1nnc(NC(=O)CSc2nc(N)cc(=O)[nH]2)s1 do in these assays?
Mtb growth: inactive

What do the screens show for `O=C(NCCc1ccccc1)c1c(NC(=O)C2COc3ccccc3O2)sc2c1CCCC2` (stereo not drawn)?
Mtb growth: inactive

What do the screens show for `CC(C)Cn1c(SCc2ccc(Cl)cc2Cl)nnc1-c1ccncc1`?
Mtb growth: inactive

Results for O=C(CN1CCOCC1)Nc1ccc(NC(=O)CN2CCOCC2)c(Cl)c1 ?
Mtb growth: inactive

Results for Cc1cc(C)cc(OC(C)C(=O)Nc2ccccc2)c1 (stereo not drawn) ?
Mtb growth: inactive

What do the screens show for `O=C(CCCN1C(=O)c2cccc3cccc(c23)C1=O)N1CCN(c2cccc(Cl)c2)CC1`?
Mtb growth: inactive

What do the screens show for `COc1cc(C(=O)Nc2ccc3c(c2)nc(C)n3C)cc(OC)c1OC`?
Mtb growth: inactive

Results for O=C(CSC1=NCCS1)N1CCc2ccccc21 ?
Mtb growth: inactive

How did Cc1ccc(NC(=O)CSc2nnnn2-c2ccccc2)cc1Cl do in these assays?
Mtb growth: inactive

Entries above containing a thiophene ring, fused or not, in the order listed:
What do the screens show for `CC(NC(=O)c1csc2ccccc12)C1CCCO1` (stereo not drawn)?
Mtb growth: inactive

How did CCc1cc(C(=O)OC)c(NC(=S)Nc2ccccc2-c2ccccc2)s1 do in these assays?
Mtb growth: inactive

What do the screens show for `O=C(NCCc1ccccc1)c1c(NC(=O)C2COc3ccccc3O2)sc2c1CCCC2` (stereo not drawn)?
Mtb growth: inactive

The list continues.
Results for O=C(NCc1ccco1)c1cc2nc(-c3ccc(F)cc3)cc(C(F)(F)F)n2n1 ?
Mtb growth: inactive

Results for Nc1nnc(SCC(=O)NCc2ccc3c(c2)OCO3)s1 ?
Mtb growth: inactive

Results for CSc1nnc(-c2ccccc2Cl)n1N ?
Mtb growth: inactive

Results for O=c1nc(/C=C/c2ccc(O)cc2)cc(C(F)(F)F)[nH]1 ?
Mtb growth: inactive

Results for COc1ccc(/C=C(\C#N)c2nc3ccc(C)cc3[nH]2)cc1Br ?
Mtb growth: inactive

Results for Cc1nc(/N=C(\N)Nc2cccc(Cl)c2)[nH]c(=O)c1C ?
Mtb growth: 1.2%

Results for Cc1ccc2c(c1C)NC(=O)CC2c1ccccc1F (stereo not drawn) ?
Mtb growth: inactive

Results for NC(=O)c1c(NC(=S)NC(=O)Cc2ccc(Cl)cc2)sc2c1CCCCCC2 ?
Mtb growth: inactive

Results for Cc1ccc(SCC(=O)NN2C(=O)c3ccccc3C2=O)cc1 ?
Mtb growth: 10.1%

Results for CCOC(=O)c1ccc(N2C(=O)C(CC(=O)Nc3ccc(F)cc3)N(Cc3ccco3)C2=S)cc1 (stereo not drawn) ?
Mtb growth: inactive

How did Cc1ccc(NC(=O)c2ccc(OC(=O)COc3c(C)ccc(C)c3C)cc2)cc1 do in these assays?
Mtb growth: inactive

Results for C=CCN1C(=O)C2Cc3c([nH]c4ccccc34)C(c3ccccc3)N2C1=S (stereo not drawn) ?
Mtb growth: 0.5%

How did COc1ccc(OC)c(NC(=O)C(C)Oc2ccc(Cl)c(C)c2)c1 (stereo not drawn) do in these assays?
Mtb growth: 17.8%

How did O=C(O)c1ccc(NC(=S)NC(=O)c2ccc(Cl)c(Cl)c2)cc1 do in these assays?
Mtb growth: inactive

How did O=C(Nc1ccccc1Oc1ccccc1)c1ccccc1F do in these assays?
Mtb growth: inactive

How did Clc1ccc(OCCN2CCN(c3ncnc4scc(-c5cccs5)c34)CC2)cc1 do in these assays?
Mtb growth: 13.9%

How did Cc1ccc(C(NC(=O)C(Cc2ccccc2)N2C(=O)c3ccccc3C2=O)c2ccccc2)cc1 (stereo not drawn) do in these assays?
Mtb growth: inactive

Results for CC(C)(C)CC(C)(C)NC(=O)c1cccc([N+](=O)[O-])c1 ?
Mtb growth: inactive

How did O=C(COc1ccccc1Br)NC1CCCC1 do in these assays?
Mtb growth: inactive

Results for CCc1c(C)nc(Nc2nc(C)c3cccc(C)c3n2)[nH]c1=O ?
Mtb growth: inactive

What do the screens show for `CC(C)OC(=O)CC1C(=O)NCCN1C(=S)NC(=O)c1cccs1` (stereo not drawn)?
Mtb growth: 0.3%

What do the screens show for `COc1ccc(NC(=O)Cn2c([N+](=O)[O-])cnc2C)c(OC)c1`?
Mtb growth: inactive

Results for Cc1ccc(S(=O)(=O)NCC(C)NS(=O)(=O)c2ccc(C)cc2)cc1 (stereo not drawn) ?
Mtb growth: inactive

What do the screens show for `CCC(Oc1ccccc1)C(=O)O/N=C(\N)c1ccccc1` (stereo not drawn)?
Mtb growth: inactive

What do the screens show for `Cc1ccc(N2C(=O)CC(n3nc(C)cc3C)C2=O)cc1` (stereo not drawn)?
Mtb growth: inactive

Results for CCOC(=O)Cc1c(C)nc2c(-c3ccc(OC)cc3)c(C)nn2c1C ?
Mtb growth: 45.9%

Results for CCc1ccc(OCC(=O)N2c3ccccc3CCc3ccccc32)cc1 ?
Mtb growth: 1.1%

What do the screens show for `CCN(CC)C(=O)c1ccc(CN(c2ccc(C)c(C)c2)S(C)(=O)=O)cc1`?
Mtb growth: inactive

How did CCOc1ccc(NC(=S)Nc2cc(OC)c(Cl)cc2OC)cc1 do in these assays?
Mtb growth: 6.4%

How did O=C(Nc1ccc(-c2cn3ccsc3n2)cc1)c1cccc(Br)c1 do in these assays?
Mtb growth: inactive

How did Cc1ccc(S(=O)(=O)NC(=O)NCc2ccccc2)cc1 do in these assays?
Mtb growth: inactive

How did C=CCN(CC=C)CCOc1cccc(Br)c1 do in these assays?
Mtb growth: inactive

Results for COc1cccc(NC(=O)c2ccc3c(c2)C(=O)N(C(C)(C)C)C3=O)c1 ?
Mtb growth: inactive

Results for CCOc1cc(/C=C/c2ccc3cccc(OC(C)=O)c3n2)ccc1OC(C)=O ?
Mtb growth: 19.4%

Results for N#Cc1cc2c(nc1SCC(=O)Nc1cc(C(F)(F)F)ccc1Cl)CCC2 ?
Mtb growth: 2.5%

What do the screens show for `CCN(C(=O)c1ccccc1Cl)c1ccccc1`?
Mtb growth: inactive

How did COc1ccc(CCN2C(=O)NC(c3ccc(F)cc3)(C(F)(F)F)C2=O)cc1 (stereo not drawn) do in these assays?
Mtb growth: inactive

Results for COc1ccc(C)cc1NC(=O)NNC(=O)c1csc(C)c1-c1ccccc1 ?
Mtb growth: inactive

Results for NS(=O)(=O)c1ccc(NC(=S)N2CCCC2)cc1 ?
Mtb growth: inactive

How did Cc1ccc(C(=O)Nc2nnc(CC(C)(C)C)s2)cc1C do in these assays?
Mtb growth: 1.6%

What do the screens show for `COc1ccc(C2=NN(S(C)(=O)=O)C(c3ccco3)C2)cc1OC` (stereo not drawn)?
Mtb growth: 3.0%

What do the screens show for `COCCSc1ccccc1C(=O)N1CCCC1`?
Mtb growth: inactive

Results for CCc1ccc(OCC(=O)NC(=S)Nc2ccc(I)cc2Cl)cc1 ?
Mtb growth: 1.5%

How did COc1cc(C2C3=C(CC(C)(C)CC3=O)Nc3ccccc3N2C(=O)C(C)C)cc(OC)c1OC (stereo not drawn) do in these assays?
Mtb growth: inactive

What do the screens show for `O=C(COc1ccccc1)NC(=S)Nc1ccc(I)cc1F`?
Mtb growth: 42.0%

How did O=C(Oc1ccc(Br)cc1)C(Cc1ccccc1)N1C(=O)C2C3CCC(C3)C2C1=O (stereo not drawn) do in these assays?
Mtb growth: inactive

How did O=C(O)CSc1nnc(COc2cccc3cccnc23)n1-c1ccc(Cl)cc1 do in these assays?
Mtb growth: inactive

How did C=CCNC(=O)CN(Cc1ccccc1F)S(=O)(=O)c1ccc(Cl)cc1 do in these assays?
Mtb growth: inactive

Results for O=C(Nc1cccc(C(=O)Nc2nccs2)c1)c1ccc([N+](=O)[O-])cc1 ?
Mtb growth: 5.4%

How did CN(CC(=O)Nc1ccc(F)cc1F)S(=O)(=O)c1cc(Cl)ccc1Cl do in these assays?
Mtb growth: 0.0%

Results for COc1ccc(C(=O)Oc2cc3oc(=O)c4c(c3cc2Cl)CCC4)cc1 ?
Mtb growth: inactive

How did CCOc1ccc(Nc2nc(N)nc(CN(C)C3CCCCC3)n2)cc1 do in these assays?
Mtb growth: 3.4%

What do the screens show for `O=C(Nc1nccs1)c1cccc(NC(=O)C2C3C=CC(C3)C2C(=O)O)c1` (stereo not drawn)?
Mtb growth: inactive

Results for CC(C)c1ccc(C(=O)NC(=S)Nc2cccc(C(=O)O)c2)cc1 ?
Mtb growth: 1.5%

What do the screens show for `CCC(C)c1ccc(NC(=S)Nc2ccn(C34CC5CC(CC(C5)C3)C4)n2)cc1` (stereo not drawn)?
Mtb growth: inactive

Results for O=C(Nc1ccc(I)cc1)c1sc2cccc(Cl)c2c1Cl ?
Mtb growth: 6.3%

Results for Cc1ccc(C(=O)Nc2ccccc2C(=O)OCc2ccc(F)cc2)cc1 ?
Mtb growth: inactive

Results for NC(=O)c1cccc2c(=O)oc3ccccc3c12 ?
Mtb growth: inactive

Results for COc1ccc(S(=O)(=O)N2CCC(C(=O)NCc3ccco3)CC2)cc1Cl ?
Mtb growth: inactive

Results for CCc1sc(NC(=O)c2c(F)cccc2F)nc1-c1ccccc1 ?
Mtb growth: inactive

Results for CCCc1cc(=O)[nH]c(Nc2ccc(O)cc2)n1 ?
Mtb growth: inactive

What do the screens show for `Cc1ccc(NC(NC=O)C(Cl)(Cl)Cl)c(C)c1` (stereo not drawn)?
Mtb growth: 2.6%

Results for Cc1cc(C(=O)Nc2ccccc2[N+](=O)[O-])cs1 ?
Mtb growth: 2.0%

What do the screens show for `Cc1ccc(S(=O)(=O)N(CC(=O)Nc2ccc(S(=O)(=O)N3CCOCC3)cc2)c2ccccc2F)cc1`?
Mtb growth: inactive

How did C=CCN(CC=C)CCOc1ccc(C)cc1I do in these assays?
Mtb growth: inactive

How did Cn1c(SCc2ccccc2Br)nc2sc3c(c2c1=O)CCCC3 do in these assays?
Mtb growth: inactive

Copied from above (4 entries):
Results for CCCc1cc(=O)[nH]c(Nc2ccc(O)cc2)n1 ?
Mtb growth: inactive

What do the screens show for `Cc1ccc(NC(NC=O)C(Cl)(Cl)Cl)c(C)c1` (stereo not drawn)?
Mtb growth: 2.6%

Results for Cc1cc(C(=O)Nc2ccccc2[N+](=O)[O-])cs1 ?
Mtb growth: 2.0%

What do the screens show for `Cc1ccc(S(=O)(=O)N(CC(=O)Nc2ccc(S(=O)(=O)N3CCOCC3)cc2)c2ccccc2F)cc1`?
Mtb growth: inactive

High-throughput results: PubChem, Southern Research Institute

The list is partial (hit frequency here may not be typical).
